Bst PK mod: modulators of Bacillus stearothermophilus pyruvate kinase. hit rate 1.2% among 51,000. partly purified Bacillus stearothermophilus pyruvate kinase, luminescence ATP production; ribose 5-phosphate activator present at AC10. AID 361. Potency, µM; in the data active means potency below about 11 µM; inconclusive means mostly about 12 µM to 25 µM; inactive means weaker than that;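 the screen sought inhibitors and activators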;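 further: potency means the concentration at half of the fitted maximal effect; scaled between full activation by ribose 5 phosphate and full inhibition by luteolin; about four in five hits inhibit and the cells do not say which; series up to 57 µM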
YjeE inh: displaces an ADP probe from E. coli YjeE (TsaE) | P0AF67 | purified YjeE, fluorescence polarisation of a bound ADP probe | Potency, µM | hit rate 0.05% among 71,000 | AID 605; active = well fitted falling curve; inconclusive = weaker or top-dose-only fall, or a rising curve; inactive = flat or poorly fitted curve;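 further: top concentration of the series not given in the record; excess ADP was the control for the full effect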
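Fluorescence polarization of a BODIPY Texas Red–ADP probe (2 uM) bound to purified YjeE (10 uM) was read after 15 min room-temperature incubation with compounds. Loss of polarization marks inhibitors; ADP serves as titrated control.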
* hit, by the source's call; i = inactive; ? = inconclusive; . = not tested or not shown.

Bst PK mod,YjeE inh,structure
.,i,COC(=O)Cn1nc(-c2ccccc2)c2ccccc21
.,i,O=C1CN2CCN(CC2)CC(=O)Nc2ccc(cc2)S(=O)(=O)c2ccc(cc2)NC(=O)CN2CCN(CC2)CC(=O)Nc2ccc(cc2)S(=O)(=O)c2ccc(cc2)N1
.,i,Cc1ccc(NS(=O)(=O)c2ccc3c(c2)oc(=O)n3C)cc1F
>57,i,CS(=O)(=O)N(CC(=O)N1CCCCCC1)c1ccc2c(c1)OCCO2
>57,i,Cc1oc(-c2cccs2)[n+]([O-])c1C
>57,i,COc1ccc(C(=O)NCCC(C)C)cc1S(=O)(=O)N1CCOCC1
?,i,Cc1cc(S(=O)(=O)Nc2ccccc2C(=O)O)ccc1Cl
.,i,CCN(CC)CCNC(=O)c1ccccc1C(=O)c1ncc[nH]1
>57,i,NC(=O)C1CCN(C(c2ccccc2F)c2nnnn2Cc2ccco2)CC1 (stereo not drawn)
.,i,O=C(O)[C@H](Cc1ccccc1)N1Cc2ccccc2C1=O
.,i,COc1ccc2[nH]cc(CCNc3ccnc(-c4ccccc4C)n3)c2c1
>57,i,CC(C)OC(=O)CC(=O)c1sc2nc3c(cc2c1N)CN(C)CC3
>57,i,CCOc1ccc(-n2c(SC)nc3c(c2=O)SCC3)cc1
>57,i,CCc1cc(C(=O)OC)c(NC(=O)CC2NCCNC2=O)s1 (stereo not drawn)
>57,i,CCSc1nnc(NC(=O)CSc2nnc(Cc3cccn3C)n2CCc2ccccc2)s1
>57,i,CCOC(=O)c1sc(NC(=O)CSc2ncccn2)c(C#N)c1C
>57,i,Cc1noc(C)c1COC(=O)c1ccc2c(c1)OCCO2
>57,i,CCCN(CCC)C(=O)CSc1nc2n[nH]c(C)c2c(=N)n1-c1ccc(OC)cc1
>57,i,Cc1csc(NC(=O)CSc2nnc(-c3ccco3)n2C)n1
>57,i,CC(=O)Nc1ccc(N2C(=O)CC(N3CC(C)OC(C)C3)C2=O)cc1 (stereo not drawn)
.,i,COc1ccc(-c2nc(SC)n(C(=O)c3ccco3)n2)cc1
>57,i,CC12C=CC3(CN(Cc4ccccc4)C(=O)C3C1C(=O)NCc1ccco1)O2 (stereo not drawn)
.,i,Cc1ccnc(NC(=O)CCC2CCCCC2)c1
.,i,CN(Cc1ccco1)C(=O)C(Cc1ccccc1)NS(=O)(=O)c1ccc2c(c1)CCC(=O)N2 (stereo not drawn)
>57,i,Cc1cccc(OCc2nnc(SCC(=O)N3CCc4ccccc43)n2C)c1
>57,i,CN1CC=C2C(C#N)=C(N)C(C#N)(C#N)C(Cc3ccccc3)C2C1 (stereo not drawn)
.,i,N[C@@H](CSc1nc2ccccn2c1[N+](=O)[O-])C(=O)O
>57,i,CCOC(=O)c1[nH]c2ccc(OC)cc2c1NC(=O)CN1CCSCC1
>57,i,COc1ccc2c(c1)OCC1=C2CCC2(C)C(=O)CC=C12 (stereo not drawn)
>57,i,O=C(CN1CCN(C(c2ccccc2)c2ccccc2)CC1)N1CCOCC1

Rewritten bar-delimited: 3 of the compounds above.
canonical_smiles | Bst PK mod | YjeE inh
Cc1ccnc(NC(=O)CCC2CCCCC2)c1 | . | i
CC12C=CC3(CN(Cc4ccccc4)C(=O)C3C1C(=O)NCc1ccco1)O2 (stereo not drawn) | >57 | i
Cc1csc(NC(=O)CSc2nnc(-c3ccco3)n2C)n1 | >57 | i

Following part.
Bst PK mod,YjeE inh,structure
.,i,Cc1noc(C)c1S(=O)(=O)NC1CCN(Cc2ccccc2)CC1
>57,i,CNC(=O)c1nnn(Cc2ccccc2)c1NC(C)=O
>25.6,.,CCOC(=O)C1=C(N)c2ccccc2CC1C(C)C (stereo not drawn)
>57,i,O=C(C1CCN(S(=O)(=O)c2cccnc2)CC1)N1CCN(c2ccc(Cl)cc2)CC1
>57,i,O=C(CN1C(=O)NC2(CCOc3ccccc32)C1=O)Nc1ccc2c(c1)OCCO2 (stereo not drawn)
>57,i,Cc1nn(-c2ccccc2)c(C)c1NC(=O)c1ccc(S(=O)(=O)N2CCCC2)cc1
>57,i,CCc1ccc(OCc2nnc(SCC(=O)NCc3ccco3)o2)cc1
>57,i,CCN1CCN(C(=O)c2nn(-c3ccc(OC)cc3)c(=O)c3c2c2ccccc2n3C)CC1
>57,i,COCCNC(=O)CN1CCC(NC(=O)Nc2ccc(C(F)(F)F)cc2)CC1
>57,i,C/C(=C\C#N)n1nc(C)cc1N
>57,i,CCOc1ccc(C2C(C#N)=C(N)SC(N)=C2C#N)cc1OCC
>57,i,CCOC(=O)c1ccc(NC(=O)CSc2nccn2C)cc1
>57,i,COC(=O)CS(=O)(=O)c1nnc([C@H](Cc2ccccc2)NC(=O)OC(C)(C)C)o1
>57,i,OC(CN1CCOCC1)CN(c1ccccc1)c1ccccc1 (stereo not drawn)
.,i,OC1CCCN(Cc2ccc3c(c2)Cc2ccccc2-3)C1 (stereo not drawn)
.,i,CCOc1ccc(S(=O)(=O)N2CCCCC2)c2ccccc12
.,i,Nc1c(S(=O)(=O)O)cc(Nc2cccc(S(N)(=O)=O)c2)c2c1C(=O)c1ccccc1C2=O
>57,i,Nn1c(Cc2ccccc2F)nnc1SCC(=O)N1CC(=O)Nc2ccccc21
>57,i,CCCn1c(SCc2ccccc2)nc2c1c(=O)[nH]c(=O)n2C
.,i,CCOC(=O)C1=C(O)CSC1=Nc1ccccc1
6.86*,i,NC1=NC2(CCN(Cc3ccccc3)CC2)n2c(nc3ccccc32)N1
2.06*,i,CCc1ccc2oc(-c3ccc(N)cc3)nc2c1
>25.6,.,CCCSc1nc(C)c(CC(=O)OCC)c(=O)[nH]1
i,i,CC(=O)NC1Sc2ccccc2N=C1c1ccccc1 (stereo not drawn)
>57,i,CCOc1cccc(C(=O)Nc2nc(-c3ccc(S(=O)(=O)N4CCOCC4)cc3)cs2)c1
>57,i,COc1ccc(CNC(=O)C(C)NC(=O)c2cc3ccccc3o2)cc1 (stereo not drawn)
>57,i,O=C1c2ccccc2C(=O)N1C/C=C/c1ccccc1
.,i,Cc1noc(NS(=O)(=O)c2ccc(NC(=O)c3cnc4scc(C)n4c3=O)cc2)c1C
>57,i,Cc1c(-c2ccccc2)[n+](=O)c(-c2ccco2)c(C)n1[O-]
>57,i,O=C(NCC(=O)N(Cc1ccco1)C(C(=O)NC1CCCC1)c1cccnc1)c1cccs1 (stereo not drawn)
.,i,Clc1ccccc1OCCCCn1ccnc1
>57,i,COc1ccc(-n2c(SCCC#N)nnc2-c2cc(Cl)ccc2OC)cc1Cl
>57,i,C=CCn1c(=O)c2c(C)c(C)sc2n2c(Nc3ccc(OC)cc3)nnc12
>11.4,.,COc1ccc(/C(O)=C2/C(=O)C(=O)N(CCCN(C)C)C2c2ccco2)cc1Cl (stereo not drawn)
.,i,CCOc1cc(/C=N/O)cc(Br)c1OC
>11.4,i,Cc1cc(-n2nnc3ccccc32)nc2ccccc12
>57,i,CS(=O)(=O)N(CC(=O)Nc1ccc2c(c1)OCCO2)Cc1ccc(Cl)cc1
>25.6,.,Cc1cc(=O)oc(C)c1C(=O)N1CCN(Cc2ccc3c(c2)OCO3)CC1
>57,i,COc1ccc(OC)c(C2C(C(=O)c3cccs3)=C(O)C(=O)N2c2cc(C)on2)c1 (stereo not drawn)
>57,i,Clc1ncn(C23CC4CC(CC(C4)C2)C3)n1
>57,i,CS(=O)(=O)NCc1ccc(C(=O)NC2CCCCC2)cc1
>57,i,COCC(=O)N1CCC(n2nnc3cc(F)ccc32)CC1
.,i,CCC(C(=O)O)n1nnc(-c2ccc(-c3ccc(OC)cc3)cc2)n1 (stereo not drawn)
.,i,COC(=O)c1cc(OC)c(OC)cc1N=CC1=C(O)CC(C)(C)CC1=O
.,i,CCN(CC)CCCn1c(-c2ccccc2)nc2c(N3CCOCC3)nc(C)nc21
.,i,COC(=O)[C@@]1(Cc2ccccc2)[C@H]2c3cc(C(=O)N4CCCC4)n(CCO)c3C[C@H]2CN1C(=O)c1ccccc1
>57,i,COc1ccc(-c2noc(CCC(=O)NCc3cc(Br)ccc3OC)n2)cc1
>57,i,c1cnc(NC2C3CC4CC(C3)CC2C4)nc1 (stereo not drawn)
>57,i,Cc1ccccc1Cn1ccc(NC(=O)c2cc3nc(-c4ccco4)cc(C(F)(F)F)n3n2)n1
>57,i,Cc1cc(C)c(S(=O)(=O)NCc2cn3c(C)csc3n2)cc1C
>57,i,O=c1cc(CSc2nnnn2-c2ccccc2)nc2scc(-c3ccccc3)n12
.,i,Cc1noc(C)c1C(=O)N1CCC2(CCN(C(=O)NC(C)C)CC2)CC1
.,i,O/N=C1\CCCc2nnc3c(c21)CCCC3
>57,i,COc1ccc(N2CCN(CCCNC(=O)C3(S(=O)(=O)c4ccc(Cl)cc4)CC3)CC2)cc1
>57,i,Cc1nn(Cc2ccccc2)c(C)c1C(=O)Nc1ccc(N2CCOCC2)cc1
>57,i,Cc1ccc(-c2nnn(Cc3nc(N)nc(N4CCOCC4)n3)n2)cc1
>57,i,COc1cc(OC)c(-c2nn3c(-c4cccnc4)nnc3s2)cc1OC
>57,i,COc1ccc(S(=O)(=O)N[C@H](C(=O)N2CC[C@@]3(O)CCCC[C@H]3C2)c2ccccc2)cc1
.,i,COc1ccc(-c2c(C)nn3c(N4CCN(Cc5ccccc5)CC4)cc(C)nc23)cc1OC
>57,i,Fc1ccc(NCc2nnc(SCc3nnc(-c4ccccc4)o3)n2Cc2ccccc2)cc1

2 entries from above, as labelled records.
canonical_smiles: Cc1oc(-c2cccs2)[n+]([O-])c1C
  Bst PK mod: >57
  YjeE inh: i
canonical_smiles: CCN1CCN(C(=O)c2nn(-c3ccc(OC)cc3)c(=O)c3c2c2ccccc2n3C)CC1
  Bst PK mod: >57
  YjeE inh: i

Other compounds.
Bst PK mod,YjeE inh,structure
>25.6,.,COCc1[nH]nc2c1C(c1cccc(OC)c1)C(C#N)=C(N)O2 (stereo not drawn)
>57,i,CC(CC(=O)NCc1ccccc1)C1CCCO1 (stereo not drawn)
>57,i,CC(=O)Nc1ccc(S(=O)(=O)Nc2ccc(NC(=O)c3ccco3)cc2)cc1
.,i,CCOC(=O)C1=C(N)OC2=C(C(=O)CCC2)C1c1ccccc1OCC (stereo not drawn)
>57,i,CCC1(c2ccccc2)NC(=O)N(CC(=O)Nc2ccc3c(c2)OCO3)C1=O (stereo not drawn)
>57,i,COCCN1Cc2cccc(C(=O)Nc3cc(OC)ccc3OC)c2C1=O
.,i,Cc1cccc(OCC(=O)Nc2cccc(O)c2)c1
>25.6,.,FC(F)(F)c1cccc(-n2cccc2/C=N/n2cnnc2)c1
>57,i,CC(C)CC(c1nnnn1C1CCCCC1)N1CCN(c2ncccn2)CC1 (stereo not drawn)
>57,i,Cc1cc(NC(=O)CSc2nc3c([nH]c4ccccc43)c(=O)n2-c2cccc(C(F)(F)F)c2)no1
>57,i,O=C(Cn1c(C(F)(F)F)nc2ccccc21)NCCN1CCCC1
.,i,O=C(c1ccc(S(=O)(=O)N2CCCCC2)cc1)N1CCN(Cc2ccc3c(c2)OCO3)CC1
>57,i,CCC(=O)N(Cc1ccc2c(c1)OCO2)Cc1cc2cc(OC)ccc2[nH]c1=O
>57,i,COc1ccc(C2C(C(=O)O)CC(=O)N2c2ccc(OC)cc2)cc1 (stereo not drawn)
.,i,CCCCC/C=C\C/C=C\CCCCCCCC(=O)O
>57,i,Cc1nc(NC2=NCN(Cc3ccc4c(c3)OCO4)CN2)nc2ccccc12
>57,i,COc1ccc(N2CCN(C(=O)CSc3nnc(CNc4ccccc4)o3)CC2)cc1
.,i,Cc1ccc(N=C2SCCCN2C(=O)c2ccco2)cc1Cl
>57,i,FC(F)Oc1ccccc1C1CC(c2ccc(Br)s2)Nc2ncnn21 (stereo not drawn)
>57,i,O=C(NCc1ccco1)c1cccnc1-c1nc2ccccc2s1
>57,i,Cc1cccc(NC(=O)CSc2nnc(-c3ccccc3)n2N)c1C
.,i,CCSc1nnc(NC(=O)CCc2ccccc2)s1
.,i,COc1ccc(C)c2sc(N3CCCC3)nc12
>57,i,CCCS(=O)(=O)Nc1cc(C(F)(F)F)ccc1OCCOC
>57,i,CC1CCN(C(=O)Cn2nc(C(F)(F)F)c3c2CCCC3)CC1
.,i,COc1ccccc1CN1CC[C@@]2(CCCN(C(=O)c3cc(C(F)(F)F)cc(C(F)(F)F)c3)C2)C1
>57,i,CC1CN(c2ccc(Oc3ccccc3)cc2)c2nc3c(c(=O)[nH]c(=O)n3C)n2C1 (stereo not drawn)
>57,i,Cc1ccc(C)n1-n1cnc2scc(-c3cccs3)c2c1=O
>57,i,CCOC(=O)c1cc2c(n(-c3ccc(C)cc3)c1=O)CCCC2=O
.,i,CCOC(=O)c1cc(-c2nnc(-c3ccc(Cl)cc3)o2)c(C)nc1C
>57,i,COc1cc(C(=O)Nc2cccc(-c3nc4ncccc4o3)c2C)cc(OC)c1OC

Entries shown so far containing bromine:
Bst PK mod,YjeE inh,structure
.,i,CCOc1cc(/C=N/O)cc(Br)c1OC
>57,i,COc1ccc(-c2noc(CCC(=O)NCc3cc(Br)ccc3OC)n2)cc1
>57,i,FC(F)Oc1ccccc1C1CC(c2ccc(Br)s2)Nc2ncnn21 (stereo not drawn)

These rows are one share of the data; the hit share may differ from the screen's.
